KCNQ2 enhance – potentiators of rat KCNQ2 potassium channel | O88943 | CHO-K1 KCNQ2, FluxOR thallium flux fluorescence; stronger effect = higher value | B-score at 10 µM | hit rate 0.54% among 310,000 | AID 2239;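 active = fluorescence ratio B-score at least 3 SD of library B-scores, with initial fluorescence B-score within 3 SD, cut at about 5.3 in these data; same plate scores as AID 2156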;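 also: B-score of peak minus minimum over baseline fluorescence ratio after K+ and Tl+ stimulus; positive B-score means potentiation of KCNQ2 with more thallium influx and brighter signal; only the inactives scoring about 0 or higher are listed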
Target sequence (O88943 whole entry, looked up): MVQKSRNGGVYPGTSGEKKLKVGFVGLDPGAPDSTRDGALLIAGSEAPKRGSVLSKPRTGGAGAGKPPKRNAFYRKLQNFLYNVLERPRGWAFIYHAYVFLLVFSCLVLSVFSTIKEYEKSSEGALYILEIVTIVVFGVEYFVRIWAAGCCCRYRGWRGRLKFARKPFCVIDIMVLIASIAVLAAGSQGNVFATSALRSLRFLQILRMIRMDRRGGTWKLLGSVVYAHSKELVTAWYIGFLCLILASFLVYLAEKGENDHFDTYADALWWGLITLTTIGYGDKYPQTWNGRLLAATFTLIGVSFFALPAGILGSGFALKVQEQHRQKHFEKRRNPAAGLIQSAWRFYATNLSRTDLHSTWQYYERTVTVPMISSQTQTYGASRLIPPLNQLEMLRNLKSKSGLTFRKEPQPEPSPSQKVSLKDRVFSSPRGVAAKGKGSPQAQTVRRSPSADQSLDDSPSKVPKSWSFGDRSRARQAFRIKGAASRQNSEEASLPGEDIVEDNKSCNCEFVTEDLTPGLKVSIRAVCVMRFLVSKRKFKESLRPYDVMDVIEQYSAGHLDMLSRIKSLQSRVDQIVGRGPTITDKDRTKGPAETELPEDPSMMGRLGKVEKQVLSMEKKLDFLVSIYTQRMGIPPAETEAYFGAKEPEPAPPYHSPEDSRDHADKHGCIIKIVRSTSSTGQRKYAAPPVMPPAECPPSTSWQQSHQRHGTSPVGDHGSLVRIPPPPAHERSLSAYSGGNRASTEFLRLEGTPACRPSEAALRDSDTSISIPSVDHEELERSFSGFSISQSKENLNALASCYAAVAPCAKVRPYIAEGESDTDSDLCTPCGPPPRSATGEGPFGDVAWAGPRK
KCNQ2 enhance baseline – further read-out of KCNQ2 enhance, marked with its call; B-score; compound at 10 µM; measured here: initial fluorescence intensity artifact check;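 brightness before thallium and not channel activity; 0 = typical well and far values either way flag optical interference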
Numbers without * were called inactive.

#	Molecule	KCNQ2 enhance	KCNQ2 enhance baseline
1	O=C(Nc1cnn(Cc2ccc(F)cc2)c1)c1cc2nc(-c3ccco3)cc(C(F)(F)F)n2n1	0.53	-1.3
2	Cc1ccc(S(=O)(=O)N2CCN(C(=O)CN3CCOCC3)C2)cc1	0.22	0.22
3	O=C1c2ccccc2-c2nnc(-c3ccc(O)cc3)cc21	0.6	-1.2
4	O=C(O)Cn1cc(/C=N/Nc2ccc([N+](=O)[O-])cn2)c2ccccc21	0.4	-0.01
5	COc1ccc2nc(NC(=O)c3ccco3)sc2c1	0.32	-0.83
6	CCc1ccc(-c2cc(C)no2)cc1S(=O)(=O)N1CCN(C(=O)c2ccco2)CC1	1.2	-0.4
7	NC(=O)COn1c(SCC(N)=O)nc2ccccc2c1=O	0.5	0.52
8	CC(NC(=O)COc1ccc(-c2ccccc2)cc1)C1CCCO1 (stereo not given)	0.1	2.4
9	CCn1c(SCC(=O)N2CCCc3ccccc32)nnc1-c1ccoc1C	0.42	0.8
10	COc1cccc(N(CC(=O)N2CCN(C)CC2)S(=O)(=O)c2ccccc2)c1	0.03	-0.2
11	O=C(O)CCNS(=O)(=O)c1ccccc1	0.28	-0.8
12	O=c1[nH]c(CN2CCN(S(=O)(=O)/C=C/c3ccccc3)CC2)nc2ccccc12	0.26	0.05
13	Cc1onc(-c2ccccc2Cl)c1C(=O)OCC(=O)c1c(N)n(C)c(=O)n(C)c1=O	0.01	-0.08
14	O=S1(=O)C=CC(Nc2ccccc2)C1 (stereo not given)	0.81	-0.66
15	O=C(O)c1ccc(CNC(=O)c2ccc(C(F)(F)F)cc2)cc1	1.2	-1.4
16	Cc1ccccc1-c1nnn(CC(=O)Nc2ccc3c(c2)OCO3)n1	1.2	-0.77
17	Cc1cc(C(=O)N2CCCC(N3CCN(Cc4ccc5c(c4)OCO5)CC3)C2)n[nH]1 (stereo not given)	0.76	0.43
18	COc1cc(/C=C2\C(=N)N3N=C(S(C)(=O)=O)SC3=NC2=O)ccc1OCCOc1ccc(C)cc1	0.08	-0.09
19	Cc1nnc(N/N=C/c2cccs2)[nH]c1=O	1.6	-0.01
20	CN(Cc1ccc(Cl)cc1)C(=O)CCl	0.07	-1.6
21	CC1CCCN(C(=O)CNC(=O)Cn2ccc3ccccc3c2=O)C1 (stereo not given)	0.06	0
22	CCNC(=O)CSc1nc2ccccc2c(=O)n1-c1cc(OC)ccc1OC	0.02	-1.9
23	CCOCCCNC(=O)c1cc2sc(Cl)cc2n1CC	0.13	-0.08
24	Cc1ccc(OCC(=O)Nc2nnc(-c3ccco3)s2)cc1	1.5	-2.8
25	Cc1cc(S(=O)(=O)NCc2ccc(N3CCN(C)CC3)cc2)c(C)s1	0.96	-0.01
26	CN(C)CCNS(=O)(=O)c1ccc(N2CCc3ccccc32)c([N+](=O)[O-])c1	2.5	-1.1
27	O=C(NCCOCCOCCNC(=O)c1cccnc1)c1cccnc1	0.01	-0.38
28	O=C(CN1CCN(S(=O)(=O)c2ccc(Br)cc2)CC1)N/N=C/c1ccncc1	3.4	1.7
29	Cc1ccc(S(=O)(=O)N2C(=O)[C@@H]3Cc4ccccc4CN3C2=O)cc1	0.75	-1.2
30	Cc1cc2c(cc1S(=O)(=O)NC1CCCCC1C)OCC(=O)N2 (stereo not given)	0.01	2.8
31	COC(=O)c1ccc(/C=C2/SC(=S)N(CCC(=O)N3CCOCC3)C2=O)cc1	0.09	0.77
32	O=c1c2ccccc2nnn1CSc1nc2ccccc2c(=O)n1CCCO	2.2	-0.08
33	CC(C)c1nnc(NC(=O)C2CCN(S(=O)(=O)c3ccc(-n4cnnn4)cc3)CC2)s1	0.43	0.15
34	O=C(COc1ccccc1[N+](=O)[O-])N/N=C/c1cccs1	0.59	0.91
35	O=C(CCNC(=O)Cn1ccc2ccccc2c1=O)NCCCN1CCN(c2ccc(F)cc2)CC1	0.76	-0.05
36	CCC(c1nnnn1Cc1ccc(OC)cc1)N(CCCO)Cc1cc2cc3c(cc2[nH]c1=O)OCO3 (stereo not given)	1.2	-1.6
37	O=C(NCC1CCCO1)c1cc(S(=O)(=O)N2CCCC2)c(Cl)cc1Cl (stereo not given)	1.3	0.24
38	CC(=O)N1CCN(C(=O)c2ccco2)CC1	0.16	1.5
39	CC1CCN(CC(=O)Nc2ccc(N3CCCCCC3)cc2)CC1	5.9*	-1.8*
40	CC(=O)Nc1cccc(C(=O)O)n1	0.07	0.06
41	CN(c1ccc(C(=O)NCC2CCCO2)cc1)S(=O)(=O)c1ccccc1 (stereo not given)	0.25	-1.5
42	O=C(Cc1c[nH]c2ccccc12)Nc1nnc(C2CC2)s1	1.5	-0.83
43	Cc1ccc(/C=C/C(=O)Nc2ccc(S(N)(=O)=O)cc2)o1	0.28	-0.34
44	O=C(CSCc1ccc(F)cc1)Nc1ccccc1C(=O)N1CCOCC1	1.8	0.49
45	COCCCn1nnnc1SCC(=O)Nc1nc2ccccc2s1	0.18	1.4
46	CCOC(=O)c1cc(-c2csc(-c3cccc(Cl)c3)n2)on1	0.66	1.1
47	CC(C)[C@H](NC(=O)OC(C)(C)C)C(=O)NCC1CCC(C(=O)N[C@@H](Cc2ccccc2)C(=O)O)CC1 (stereo not given in full)	1.2	-2.2
48	Cc1nc(C)c(-c2csc(Nc3ccccn3)n2)s1	5.7*	0.59*
49	CCC1CCCCN1C(=O)COc1ccc(F)cc1 (stereo not given)	0.05	1.5
50	CCC(=O)N1CCc2cc(S(=O)(=O)N(C)c3ccc(Br)cc3)ccc21	0.02	-0.78
51	O=C(O)Cc1cc2c(s1)CCCCC2	1.1	-0.71
52	Cc1cc(C(=O)O/N=C(\N)c2ccncc2)ccc1[N+](=O)[O-]	1.1	0.02
53	Cc1ccnc(NC(=O)CCC(=O)N(CC(=O)NCCc2ccccc2)Cc2cccs2)c1	1.3	-2
54	CCOc1ccc(NC(=O)C2CCC(C)(C(=O)O)C2(C)C)cc1 (stereo not given)	1.2	0.25
55	CN(CC1CCCN(CCc2cccc(C(F)(F)F)c2)C1)C(=O)c1ccco1 (stereo not given)	0.03	0.85
56	O=C(NCC1CCCO1)c1csc(Nc2cccc3ccccc23)n1 (stereo not given)	0.1	0.48
57	CCC(=O)Nc1cccc(C2=NOC3(C2)C[C@@H](C(N)=O)N(C(=O)C2(C)CC2)C3)c1 (stereo not given in full)	0.07	-0.15
58	Cc1[nH]c(=O)c(Cc2ccccc2)c(O)c1C#N	0.72	-0.56
59	Cc1ccccc1CNCc1cccnc1	0.28	-2.2
60	CCN1CCN(C(=O)c2ccc(COc3ccc(Cl)cc3)o2)CC1	0.9	-0.69

More entries follow:
#	Molecule	KCNQ2 enhance	KCNQ2 enhance baseline
61	Cc1ccc(NC(=O)CN(C)C(=O)CCOc2cccc(C)c2)cc1	2.2	-3.2
62	CN(C)CCn1c2c(c(SCC(=O)Nc3cccc(C(F)(F)F)c3)nc1=O)CCCC2	0.23	-0.7
63	CC(=O)N1CCN(c2nnnn2-c2ccccc2)CC1	0.63	-0.13
64	O=C(CCCOc1ccc(Br)cc1)Nc1ccc(S(=O)(=O)N2CCOCC2)cc1	0.35	0.18
65	CCOc1ccc(NS(=O)(=O)c2ccc(C(=O)NCc3cccnc3)cc2)cc1	0.07	-0.01
66	Cc1cc(Nc2ccccc2Br)n2nc(C)nc2n1	0.11	-1.1
67	Cc1csc(SCc2c(C(=O)O)oc3ccccc23)n1	1.1	-1.9
68	CCOCCCNC(=O)CCc1ccc(-n2cnc3cccnc32)cc1	0.03	-0.66
69	COC(=O)Nc1c(C)n(C)n(-c2ccccc2)c1=O	0.05	-3
70	O=C(CNC(=O)C(c1ccccc1)c1ccccc1)N/N=C\c1ccc2c(c1)OCO2	1.1	1.2
71	CN1CCN(C(=O)c2ccc(-n3cccc3)cc2)CC1	2.3	0.01
72	CSCCC(N=C1NS(=O)(=O)c2ccccc21)C(=O)N1CCCC(C(N)=O)C1 (stereo not given)	0.29	0.66
73	C/C(=N\OC(=O)c1ccc(F)cc1)c1sc(-c2ccccc2)nc1C	0.46	-0.11
74	COC(=O)c1ccc(Nc2nc(C)cc(C)n2)cc1	0.27	0.79
75	O=c1ccc2cc(S(=O)(=O)N3CCN(c4ccccc4)CC3)ccc2o1	0.65	-1.2
76	COc1ccc2nc(N3CCCC(C(=O)NCCCN4C(C)CCCC4C)C3)sc2c1 (stereo not given)	1.4	0.05
77	O=C(O)c1cccc(CSc2nnc(-c3ccco3)o2)c1	0.22	-0.41
78	Cc1nnc(NC(=O)c2sc3ccccc3c2Cl)s1	1.5	0.01
79	CCCCOc1ccc(N(CC(=O)NCCOC)C(=O)CCC(=O)Nc2ccccn2)cc1	0.01	0.03
80	Cc1cc(C(=O)COC(=O)/C=C/c2cccc(F)c2)c(C)n1C	1.2	-0.86
81	COC(=O)c1cccc(COC(=O)c2ccccc2NC(=O)c2ccco2)c1	0.01	0.13
82	CCC(Sc1ncnc2c1c(-c1ccccc1)cn2-c1ccc(OC)cc1)C(=O)OC (stereo not given)	0.83	0.91
83	O=C(Cn1cnc2c(nnn2-c2ccccc2)c1=O)N1CCCc2ccccc21	1.4	-0.51
84	O=C(NCCS(=O)(=O)NCCc1ccccc1)c1ccccc1	0.1	-3
85	Nc1c(Cl)cc(C2=NCCn3c2c2ccccc2[n+]3[O-])cc1Cl	0.27	0.64
86	CNC(=S)NCCc1cc2c(OC)ccc(OC)c2[nH]c1=O	0.33	-0.35
87	CC(Oc1ccc2c(-c3ccccc3)cc(=O)oc2c1)C(=O)NCC(O)c1ccccc1 (stereo not given)	0.76	-2.7
88	COc1ccc(-c2nc(C#N)c(NCc3ccc(C)cc3)o2)cc1OC	0.92	-0.47
89	Clc1ccc2nc3ccccn3c2c1	1.1	0.12
90	CN(Cc1ccccc1)S(=O)(=O)c1ccc(NC(=O)c2ccccc2C(=O)O)cc1	0.7	-1.3
91	Cc1ccc(NC(=O)OCCNC(=O)c2ccncc2)cc1	2.2	-0.31
92	CCOC(=O)C1(C)NC(c2ccco2)C2C(=O)N(C)C(=O)C21 (stereo not given)	0.37	0.5
93	Cc1cc(C)n(S(=O)(=O)Cc2ccccc2)n1	0.33	0.24
94	Cc1sc2ncn(CC(=O)N3CCCCC3)c(=O)c2c1S(=O)(=O)N1CCC(C)CC1	0.4	-1
95	Cc1ccc2[nH]c3ccccc3c(=O)c2c1	0.55	1.6
96	CCOc1ccc(N/C=C/C(=O)c2ccc(OC)cc2)cc1	0.19	0.46
97	CCOc1cc(C(=O)OCC(=O)Nc2ccc(Cl)cn2)ccc1OCC(=O)N1CCOCC1	1.4	1.6
98	Cc1cnc(C(=O)N2CCCC(C(=O)c3ccc(C(C)(C)C)cc3)C2)cn1 (stereo not given)	0.24	-0.29
99	Cc1c(C(=O)Nc2nccs2)oc2c(Cl)cccc12	0.85	0.62
100	COc1ccc(CCNC(=O)COc2ccc(S(=O)(=O)NC3CCCCC3)cc2Cl)cc1	0.22	-0.54
101	O=C(COC(=O)c1cc[n+]([O-])cc1)Nc1ccc([N+](=O)[O-])cc1Cl	0.47	1.1
102	CCOC1=CC(=O)N(Cc2ccccc2)C1	1.3	0.62
103	Cc1ccc(-c2noc(CCC(=O)Nc3ccccc3C)n2)cc1	0.99	0.35
104	c1ccc(COc2ccccc2CNc2nn[nH]n2)cc1	1.1	-0.31
105	CCN(CC(=O)NCc1ccc(Cl)cc1)C(=O)CCc1ccccc1O	1.2	-0.04
106	Cn1ncc([N+](=O)[O-])c1C(=O)Nc1nc2ccccc2n1CCN1CCCCC1	0.22	-1.5
107	Cc1ccc(C)c(N2N=C(C(=O)O)CCC2=O)c1	0.84	0.05
108	COc1ccc(S(=O)(=O)N2CCCC2CNC(=O)C(=O)NCc2cccs2)cc1 (stereo not given)	0.03	0.12
109	Oc1cccc2ccc(/C=C/c3ccccc3Cl)nc12	0.23	2.1
110	NC1=NS(=O)(=O)NC1c1ccc(Cl)cc1 (stereo not given)	0.11	-2.2
111	COc1ccccc1C(=O)C1CCCN(C(=O)C2=CC(=O)CC(C)(C)O2)C1 (stereo not given)	1.2	-0.35
112	Cc1ccc(C)c(OCc2cc(C(=O)N3C[C@@H](C)O[C@@H](C)C3)no2)c1	1.4	1.6
113	COc1ccc(CNC(=O)C2CCN(S(=O)(=O)c3ccccc3)CC2)cc1	1.8	-1.3
114	O=C(O)CC1SC(=O)N(CC(=O)c2ccccc2)C1=O (stereo not given)	1.4	0.09
115	CCOC(=O)c1cccc(NC(=O)c2ccc3c(c2)C(=O)N(CC2CCCO2)C3=O)c1 (stereo not given)	1	1.4
116	CN(C)c1nc(N(C)C)nc(N(C)C)n1	2.1	1.8
117	N/C(=N\c1nc2ccccc2o1)NC(=O)c1ccccc1F	0.65	-1.1
118	Cc1onc(-c2ccccc2Cl)c1C(N)=O	0.35	2.8
119	CCCc1nnc(NC(=O)CCC(=O)N2CCN(S(=O)(=O)c3ccc(F)cc3)CC2)s1	0.72	0.53

Quoted at random: 7 compounds from above
#	Molecule	KCNQ2 enhance	KCNQ2 enhance baseline
114	O=C(O)CC1SC(=O)N(CC(=O)c2ccccc2)C1=O (stereo not given)	1.4	0.09
112	Cc1ccc(C)c(OCc2cc(C(=O)N3C[C@@H](C)O[C@@H](C)C3)no2)c1	1.4	1.6
118	Cc1onc(-c2ccccc2Cl)c1C(N)=O	0.35	2.8
103	Cc1ccc(-c2noc(CCC(=O)Nc3ccccc3C)n2)cc1	0.99	0.35
110	NC1=NS(=O)(=O)NC1c1ccc(Cl)cc1 (stereo not given)	0.11	-2.2
101	O=C(COC(=O)c1cc[n+]([O-])cc1)Nc1ccc([N+](=O)[O-])cc1Cl	0.47	1.1
113	COc1ccc(CNC(=O)C2CCN(S(=O)(=O)c3ccccc3)CC2)cc1	1.8	-1.3

High-throughput results deposited in PubChem BioAssay by Johns Hopkins Ion Channel Center.

This is a subset. The share of hits here may be higher or lower than overall.
